High-throughput results deposited in PubChem by National Center for Advancing Translational Sciences (NCATS).
LASV entry inh: qHTS for Inhibitors of binding or entry into cells for Lassa Virus; Lassa virus pseudotype entry inhibition, cell reporter; control for the full effect not named in the record; Potency, µM (top dose mostly 37.9 µM), without a hit: at the top dose activity change, negative = inhibition, usual class: inhibitors; 300,000 tested, 1.2% active; active means well fitted inhibition curve with a large enough effect; inconclusive means small, poorly fitted or top-dose-only effect, or effect the other way; inactive means flat fitted curve, though single readings scatter; tested in HEK293 cells; note: % is set by controls: 0 for no effect and ±100 for the full control effect; nearly all actives have a fitted effect of over 50% in size; luciferase read-out
Marburg entry inh: qHTS for inhibitors of binding or entry into cells for Marburg Virus. Marburg virus pseudotyped entry inhibition, cell reporter; control for the full effect not named in the record; about a third of the inactives were read at about 46 µM. Potency, µM (top dose mostly 37.8 µM), for the others: at the top dose activity change, negative = inhibition, actives largely listed as inhibitors. 300,000 tested, 1.8% active. AID 540276, 2011; active = well fitted inhibition curve with a large enough effect; inconclusive = small, poorly fitted or top-dose-only effect, or effect the other way; inactive = flat fitted curve, though single readings scatter; tested in HEK293 cells; about a fifth of its hits are not listed in these tables; note: % is set by controls: 0 for no effect and ±100 for the full control effect; luciferase read-out
RE007 growth inh: qHTS Assay for Inhibitors of the HIV-1 protein Vpr. 360,000 tested, 0.21% active. S. pombe RE007 Vpr strain, BacTiter-Glo ATP luminescence, 24 h; control for the full effect not named in the record. Potency, µM (doses to about 92.2 µM), inactives show at the highest dose activity change, negative = less growth. AID 651644, 2012; active = well fitted falling curve with a large enough effect; inconclusive = small, poorly fitted or top-dose-only effect; inactive = no such curve, though single readings can be large or run the other way;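 note: % is set by controls: 0 for no effect and ±100 for the full control effect; nearly all actives have a fitted effect of over 50% in size; the assay follows cell death caused by Vpr and the record does not say whether a fall means rescue or toxicity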
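Fission yeast RE007 carrying one integrated HIV-1 vpr copy, seeded at OD 0.01 in PMG+AL medium with 23 nL pinned compound. Grown 24 h at 30 degrees; viability read by BacTiter-Glo luminescence after 5 min.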
NS1 function inh: qHTS Assay for Inhibitors of Influenza NS1 Protein Function. S. cerevisiae slowed by influenza A NS1, growth recovery by OD600. Potency, µM (doses to about 46.1 µM), for inactives: top-dose activity, positive = more growth. 270,000 tested, 0.4% active; active means well fitted rising curve with a large enough effect; inconclusive means small, poorly fitted or top-dose-only effect; inactive means no such curve, though single readings can be large or run the other way; note: nearly all actives have a fitted effect of over 50% in size
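Read-out: OD600 growth recovery of NS1-expressing budding yeast. Cells grown overnight at 30C in -URA glucose medium, washed, resuspended and diluted 1:100 in 2% galactose assay medium, pH 6.0. Same strain lacking NS1 served as positive control.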
Cruzain Triton: qHTS Assay for Promiscuous and Specific Inhibitors of Cruzain (with detergent). purified cruzain, Z-FR-AMC fluorescence, 0.01% Triton. Potency, µM, for the others: max response, negative = inhibition, most hits filed as inhibitors. 200,000 tested, 0.43% active. AID 1478, 2009;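 note: plate controls were neutral wells for no effect and buffer without enzyme for full effect; nearly all actives have a fitted effect of over 40% in size; top concentration of the series not given in the record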
Target sequence (P25779 123-467 limits assumed): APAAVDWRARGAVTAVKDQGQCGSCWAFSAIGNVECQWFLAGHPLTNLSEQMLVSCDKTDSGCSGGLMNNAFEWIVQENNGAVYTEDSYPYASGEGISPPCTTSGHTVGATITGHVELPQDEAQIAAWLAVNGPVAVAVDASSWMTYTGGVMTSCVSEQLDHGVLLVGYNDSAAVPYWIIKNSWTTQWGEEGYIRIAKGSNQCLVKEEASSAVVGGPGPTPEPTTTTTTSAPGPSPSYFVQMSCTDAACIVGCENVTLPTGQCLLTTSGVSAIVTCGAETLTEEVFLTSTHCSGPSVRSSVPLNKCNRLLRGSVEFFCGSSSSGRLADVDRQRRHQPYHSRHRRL
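15 min RT preincubation of 1.5 nM cruzain with compound, then 2 uM Z-FR-AMC added; kinetic AMC fluorescence, 60 s delta. Triton X-100 0.01%, pH 5.5.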
SARS PLpro yeast: qHTS of Yeast-based Assay for SARS-CoV PLP; Potency, µM (titrated, usually from 32.9 µM), inactives show top-dose activity, positive = growth rescue; 330,000 tested, 0.19% active; S. cerevisiae expressing SARS-CoV PLpro, growth rescue; control for the full effect not named in the record; active means well fitted rising curve with a large enough effect; inconclusive means small, poorly fitted or top-dose-only effect; inactive means no such curve, though single readings can be large or run the other way; note: 0% is about no effect; nearly all actives have a fitted effect of over 55% in size; growth read by luminescence after 48 h
StopGo reporter: High Throughput Screening for Foot and Mouth Disease Virus Antivirals; human cells with a luciferase reporter of 2A StopGo recoding; control for the full effect not named in the record; Potency, µM (highest dose often 57.9 µM), for the others: at the top dose signal change, negative = less light; 410,000 tested, 1.2% active; active = well fitted falling curve with a large enough effect; inconclusive = small, poorly fitted or top-dose-only effect; inactive = no such curve, though single readings can be large or run the other way; tested in HEK293T cells; note: % is set by controls: 0 for no effect and ±100 for the full control effect; nearly all actives have a fitted effect of over 45% in size; luciferase light after 4 h
Cruzain noTriton: qHTS Assay for Promiscuous and Specific Inhibitors of Cruzain (without detergent) | Cruzipain (Trypanosoma cruzi), P25779 | purified cruzain, Z-FR-AMC fluorescence, no detergent | Potency, µM, inactives show max response, negative = inhibition, actives largely listed as inhibitors | 200,000 tested, 2.3% active;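 note: plate controls were enzyme without inhibitor for no effect and buffer without enzyme for full effect; nearly all actives have a fitted effect of over 40% in size; top concentration of the series not given in the record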
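Detergent-free condition (0.00005% Triton X-100) in acetate buffer pH 5.5 with DTT. 1.5 nM enzyme and compound were pre-mixed 15 min, then 2 uM Z-FR-AMC substrate added; reaction progress from fluorescence change between first and third reads (60 s).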
Active calls of the source: *; ? = inconclusive; · = no result given; & = joins results of further samples; [ ] = another dose, or the depositor's remark. Unless noted, calls come from the whole dose curve; as a rule, active = well fitted curve in the direction sought with a large enough effect; inconclusive = small, poorly fitted or top-dose-only effect, or another doubt; inactive = no such curve, though single readings can be large; an effect the other way counts as inactive or inconclusive. Potency is the fitted concentration of half-maximal effect.

[1] N/C(=N\OC(=O)Cc1cccs1)c1ccccc1
[2] CC(=O)OCC1OC(OCc2cn(C[C@H]3CC[C@@H]([C@@H]4CC[C@H](Cn5cc(COC6OC(COC(C)=O)C(OC(C)=O)C(OC(C)=O)C6OC(C)=O)nn5)O4)O3)nn2)C(OC(C)=O)C(OC(C)=O)C1OC(C)=O (stereo not given in full)
[3] O=C(NCc1ccc(Cl)cc1)C1CCC(CNc2c(N3CCOCC3)c(=O)c2=O)CC1 (stereo not given)
[4] Cc1ccc(NC(=O)c2ccc(Br)o2)c([N+](=O)[O-])c1
[5] O=C(NNC(=O)c1ccco1)c1cccc(Br)c1
[6] Cc1nc(NS(=O)(=O)c2ccccc2)sc1C(=O)NN
[7] COc1ccc(C(=O)NCCCNC(=O)c2ccc(C)nc2)cc1
[8] CCOc1ccc(NC(=O)Cn2c(=O)n(CCCC(=O)NCCc3ccc(Cl)cc3)c(=O)c3ccccc32)cc1

assay / entry	1	2	3	4	5	6	7	8
LASV entry inh	28%	·	·	1%[46.1 µM]	11%[46.1 µM]	3%	-9%	-2%[46.1 µM]
Marburg entry inh	3%	·	·	0%[46.1 µM]	2%[46.1 µM]	11%[46.1 µM]	22%[46.1 µM]	·
RE007 growth inh	?	8%	0%	-5%	15%	-12%	-14%	·
NS1 function inh	-2%	-22%	4%	·	-27%	8%	6%	·
Cruzain Triton	-3.5%	·	·	·	·	·	·	4.1%
SARS PLpro yeast	4%	-10%	4%	·	-8%	1%	-13%	·
StopGo reporter	61%[activator]	-17%	3%	17%	25%	12%	22%	-17%
Cruzain noTriton	-8%	·	·	·	·	·	·	2%

[9] COc1ccc(OC)c(S(=O)(=O)N2CCc3ccccc32)c1
[10] O=C(NCCS(=O)(=O)N1CCN(Cc2ccccc2)CC1)c1ccc(F)cc1
[11] CCCCn1c(N)c(N(CCC(C)C)C(=O)c2c(C)noc2C)c(=O)[nH]c1=O
[12] CSc1ccc(/C=C/c2nc3ccccc3c(=O)n2-c2cccc(Cl)c2C)cc1
[13] COc1ccc2c(CC(=O)Nc3nccs3)coc2c1
[14] C#C[C@]1(O)CC[C@H]2[C@@H]3CCc4cc(O)ccc4[C@H]3CC[C@@]21C
[15] Cc1cccc(C(=O)NC2CCN(C(=S)NCc3ccco3)CC2)c1
[16] CSc1ccccc1NC(=O)CN(C)C(=O)C1CCN(C(=O)Nc2ccccc2)CC1

assay / entry	9	10	11	12	13	14	15	16
LASV entry inh	8%	-11%	17%	-8%[46.1 µM]	0%	?	3%	10%
Marburg entry inh	?	?	?	·	?	?	7%	2%[46.1 µM]
RE007 growth inh	-2%	-11%	-29%	·	21%	32%	-4%	1%
NS1 function inh	-9%	·	·	·	4%	-22%	13%	·
Cruzain Triton	3.4%	·	·	-0.6%	·	-2.4%&-1.9%&-2.4%	0.2%	·
SARS PLpro yeast	-4%	2%	-1%	·	1%	-21%	0%	-2%
StopGo reporter	14%	-12%	-12%	-19%	46%[activator]	-20%	·	-6%
Cruzain noTriton	6%	·	·	?	·	-17%&-9%&-2%	13%	·

[17] NNc1nc2ccc(F)cc2s1
[18] COc1ccc(C(=O)N2CCOC2CNC(=O)C(=O)NCc2ccc3c(c2)OCO3)cc1 (stereo not given)
[19] CCCC(=Nc1ccccc1)C1=C(O)C(C(=O)OC)C(C)(C)CC1=O (stereo not given)
[20] O=C(O)CCC(=O)OCCN(Cc1ccc(Oc2ccc([N+](=O)[O-])cc2)cc1)C(=O)C(Cl)Cl
[21] CCc1nc2nc(C)c(NS(=O)(=O)c3ccc(C4CCCCC4)cc3)c(=O)n2[nH]1
[22] Cc1ccc(C(=O)Nc2c(-c3ccccc3)nc3ccccn23)cc1
[23] O=C(Nc1ccc(N2CCOCC2)cc1)c1cc(-c2ccncc2)nc2ccccc12
[24] CCOC(=O)c1c(N)sc2c1CCCC2

assay / entry	17	18	19	20	21	22	23	24
LASV entry inh	?	-18%	6%	-2%	3%	-8%[46.1 µM]	·	0%
Marburg entry inh	-1%	12%	12%	-14%	3%[46.1 µM]	-3%[46.1 µM]	·	1%
RE007 growth inh	-21%	1%	5%	13%	-1%	·	-7%	-16%
NS1 function inh	-7%	·	-132%	·	21%	·	3%	-14%
Cruzain Triton	-0.4%	·	3.9%	·	·	-2.9%	·	-18%
SARS PLpro yeast	-46%	0%	13%	·	4%	·	-1%	-8%
StopGo reporter	0%	-14%	·	-21%	-3%	-4%	-13%	1%
Cruzain noTriton	0%	·	8%	·	·	-5%	·	1%

Reformatted with tabs: two of the compounds above.
cpd	Molecule	LASV entry inh	Marburg entry inh	RE007 growth inh	NS1 function inh	Cruzain Triton	SARS PLpro yeast	StopGo reporter	Cruzain noTriton
24	CCOC(=O)c1c(N)sc2c1CCCC2	0%	1%	-16%	-14%	-18%	-8%	1%	1%
22	Cc1ccc(C(=O)Nc2c(-c3ccccc3)nc3ccccn23)cc1	-8%[46.1 µM]	-3%[46.1 µM]	·	·	-2.9%	·	-4%	-5%

(cont.)
[25] Cc1nn(CC#N)c(=O)n1-c1ccccc1
[26] C=CCn1c(SCC(=O)NC2CCCCC2)nnc1C1CCCCC1
[27] Cc1cc(-c2nn(C)c(=O)c3ccccc23)cc(C)c1O
[28] Cc1cc(C)c2[nH]c(=O)c(CN(Cc3cccs3)C(=S)NCc3ccco3)cc2c1
[29] O=C(NCc1ccco1)[C@@H]1CCCN1C(=O)c1cccs1
[30] CC(=O)N1Cc2ccccc2CC1C(=O)N1CCN(c2ccccc2)CC1 (stereo not given)
[31] CN1CCN(CC#CCn2c3ccccc3c3ccccc32)CC1
[32] COC(=O)c1ccccc1NC(=O)NCCc1ccccc1OC

assay / entry	25	26	27	28	29	30	31	32
LASV entry inh	?	-8%	·	-21%	-2%	6%	?	0%[46.1 µM]
Marburg entry inh	-1%	-23%[46.1 µM]	·	?	-4%[46.1 µM]	9%[46.1 µM]	?	?
RE007 growth inh	27%	6%	0%	25%	10%	-11%	6%	-11%
NS1 function inh	6%	16%	1%	-3%	7%	·	-6%	-3%
Cruzain Triton	0.2%	0.9%	·	-3.3%	3.3%	·	6.1%	·
SARS PLpro yeast	0%	5%	1%	-8%	3%	-2%	-3%	0%
StopGo reporter	-14%	0%	-20%	-28%	4%	-2%	9%	25%
Cruzain noTriton	-5%	1%	·	?	-3%	·	-7%	·

[33] Oc1ccc(/C=N/NC(=S)Nc2cccnc2)cc1
[34] COc1ccc(OC)c(-c2cc(C3CCN(c4ncccc4[N+](=O)[O-])CC3)[nH]n2)c1
[35] O=C(NNc1ccccc1F)C1CCC1
[36] CCC1(c2ccc(Cl)cc2)NC(=O)N(CC(=O)NC2CCCCCC2)C1=O (stereo not given)
[37] Fc1ccc(C2=CC(c3ccco3)n3nnnc3N2)cc1 (stereo not given)
[38] COc1ccc(C(NC(=O)c2ccco2)c2ccc(OC)c(OC)c2)cc1 (stereo not given)
[39] O=C(O)c1cc(S(=O)(=O)N2CCCCCC2)c(Cl)cc1Cl
[40] NC(=S)N/N=C/c1ccc2c(c1)OCCO2

assay / entry	33	34	35	36	37	38	39	40
LASV entry inh	·	?	-10%	-21%	-22%[46.1 µM]	-7%	9%	?
Marburg entry inh	·	?	19%	-6%	22%[46.1 µM]	0%	12%	-9%[46.1 µM]
RE007 growth inh	26%	25%	65%	-17%	-2%	7%	8%	-1%
NS1 function inh	7%	24%	4%	·	1%	-5%	?	·
Cruzain Triton	·	-8.5%	·	·	·	0.1%	5.4%	·
SARS PLpro yeast	-1%	-17%	-1%	-8%	-1%	-4%	6%	14µM*
StopGo reporter	18%	?	-5%	-10%	0%	-26%	·	46%[activator]
Cruzain noTriton	·	19%	·	·	·	1%	8%	·

Among those listed so far, these contain bromine.
[4] Cc1ccc(NC(=O)c2ccc(Br)o2)c([N+](=O)[O-])c1
[5] O=C(NNC(=O)c1ccco1)c1cccc(Br)c1

assay / entry	4	5
LASV entry inh	1%[46.1 µM]	11%[46.1 µM]
Marburg entry inh	0%[46.1 µM]	2%[46.1 µM]
RE007 growth inh	-5%	15%
NS1 function inh	·	-27%
Cruzain Triton	·	·
SARS PLpro yeast	·	-8%
StopGo reporter	17%	25%
Cruzain noTriton	·	·

(more compounds)
[41] Cc1ccc(NC(=O)CN(C)C(=O)Cn2cc(C(F)(F)F)cc(Cl)c2=O)cc1
[42] COc1ccc(C2C(=O)c3ccccc3C2=Nc2ccc(Br)cc2)cc1 (stereo not given)
[43] Cc1nnc(-c2cnn(C)c2N)n1Cc1ccc(Cl)cc1
[44] COC(=O)CCC(=O)OC1(C)C(=O)C2=CN(CCCOC(C)C)C(c3ccc(OC)cc3)=CC2=C(Br)C1=O (stereo not given)
[45] O=[N+]([O-])c1cccc2c([As](=O)(O)O)cccc12
[46] COc1ccc(OC)c(NC(=O)CC2(CC(=O)O)CCCC2)c1
[47] CCOP(=O)(OCC)C(Cc1ccccc1)NC(C)=O (stereo not given)
[48] CCCCn1c(N)c(N(CC(C)C)C(=O)c2oc3ccc(OCC)cc3c2C)c(=O)[nH]c1=O

assay / entry	41	42	43	44	45	46	47	48
LASV entry inh	-2%	·	14%	·	9%[46.1 µM]	20%	·	?
Marburg entry inh	-18%	-6%	16%[46.1 µM]	·	-6%[46.1 µM]	9%[46.1 µM]	·	-1%
RE007 growth inh	9%	1%	-5%	-11%	-7%	-4%	14%	1%
NS1 function inh	8%	10%	-1%	3%	-6%	2%	9%	7%
Cruzain Triton	-3.6%	1.6%	2.6%	·	·	·	·	·
SARS PLpro yeast	16%	8%	6%	2%	0%	0%	-2%	3%
StopGo reporter	-9%	-31%	-1%	-1%	-5%	-16%	-12%	16%
Cruzain noTriton	2%	-8%	0%	·	·	·	·	·
